VDR inh: Inhibitors of the vitamin D receptor (VDR): qHTS. Vitamin D3 receptor (Homo sapiens), P11473. VDR-SRC2-3 peptide fluorescence polarization, 2 h. Potency, µM, inactives show max response, negative = inhibition, hits mostly inhibitors. 0.93% of 400,000 active; active = well fitted inhibition curve with a large enough effect; inconclusive = small, poorly fitted or top-dose-only effect, or another doubt; inactive = no such curve, though single readings can be large or run the other way; also: series mostly up to about 120 µM
Target sequence (P11473 whole entry, looked up): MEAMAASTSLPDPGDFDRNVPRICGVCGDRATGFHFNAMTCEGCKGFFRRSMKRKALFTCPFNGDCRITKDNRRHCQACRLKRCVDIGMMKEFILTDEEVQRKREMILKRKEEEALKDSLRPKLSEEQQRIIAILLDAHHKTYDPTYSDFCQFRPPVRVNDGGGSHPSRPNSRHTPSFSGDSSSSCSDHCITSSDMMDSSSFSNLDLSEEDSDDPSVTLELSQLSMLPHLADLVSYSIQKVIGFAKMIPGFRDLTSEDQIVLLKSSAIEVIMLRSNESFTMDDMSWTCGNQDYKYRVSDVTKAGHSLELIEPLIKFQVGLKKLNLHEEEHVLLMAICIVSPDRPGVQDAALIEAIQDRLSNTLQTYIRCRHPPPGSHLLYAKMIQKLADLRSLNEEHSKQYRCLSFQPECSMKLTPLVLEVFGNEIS
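Measured by FP: displacement of SRC2-3 coactivator peptide from VDR by library compounds, following a two-hour ambient incubation.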
Starred values were filed as active, the others as inactive; u = inconclusive; & = joins results of further samples. % is scaled to controls: 0 for no effect and ±100 for the full control effect; potency is read from the fitted curve at half-maximal effect.

structure	VDR inh
CC1(C)C(=O)Nc2ccccc2N1C(=O)COC(=O)c1cc(S(C)(=O)=O)ccc1Cl	-3%
COc1ccc([C@H]2CC(=O)C=C(c3cc(C=O)ccc3OC)C2)cc1	-9%
O=S(=O)(c1cc(Cl)ccc1Cl)n1nnc2ccccc21	10%
CCN=C1SC(CC(=O)NCc2ccccc2)C(=O)N1CC (stereo not given)	8%
CSCCC(NS(=O)(=O)c1ccccc1F)C(=O)NCC(c1ccc(F)cc1)N1CCOCC1 (stereo not given)	-16%
COc1nc(-c2ccccc2)nc(-c2ccccc2)c1C	-7%
CC(C)NC(=O)CSCc1c(F)cccc1Cl	-13%
CC1(C)CC(=O)C=C(c2ccc3c(c2)OCO3)C1	-1%
CCOc1ccc(-c2[nH]ncc2Oc2cccc(OC)c2)c(O)c1	-1%
Cc1ccc(Cl)cc1NC(=O)C1CCCN1S(=O)(=O)c1ccc(-c2ccc(=O)[nH]n2)s1 (stereo not given)	-20%
Cn1c(=O)c2c(nc(NCc3ccco3)n2C/C=C/c2ccccc2)n(C)c1=O	-22%
CC(=O)NCC12CC3CC(C1)CC(C(=O)O)(C3)C2	7%
Cc1cc2c(nc1C)CCCN2C[C@@H](C)O/N=C1/[C@H]2CCn3c(=O)n(-c4ccccc4)c(=O)n3[C@H]2[C@H](O)[C@@H]2O[C@H]12	-15%
CCOC(=O)C1C(=O)CC(C)(O)C(C(=O)OCC)C1c1ccc(F)cc1 (stereo not given)	-3%
COc1cc(OC)c2c(C)cc(=O)oc2c1C(CCN1CCCCC1)c1ccc(N(C)C)cc1 (stereo not given)	1%
CC(=O)N1CCc2c(sc(NC(=O)CCS(=O)(=O)c3ccc(C)cc3)c2C#N)C1	-11%
CCNc1ncc2nc(C)c(=O)n(C[C@H]3CCCO3)c2n1	4%
c1ccc2c(c1)CCc1c(-c3ccncc3)n[nH]c1-2	-15%
CCOC(=O)N1CCN(C(=O)CN(c2ccc(OC)cc2)S(C)(=O)=O)CC1	8%
Cn1c(CNC(=O)c2ccccc2F)nnc1SCC(=O)c1ccccc1	-18%

Given as labelled records: entries from further up.
CC1(C)C(=O)Nc2ccccc2N1C(=O)COC(=O)c1cc(S(C)(=O)=O)ccc1Cl
  VDR inh: -3%
CC(=O)NCC12CC3CC(C1)CC(C(=O)O)(C3)C2
  VDR inh: 7%

(further entries)
structure	VDR inh
CSc1nnc([C@@H](NC(=O)OC(C)(C)C)C(C)C)o1	-13%
CCS(=O)c1ccccc1C(=O)OC(C)C(=O)Nc1ccc(S(=O)(=O)N2CCCC2)cc1 (stereo not given)	1%
O=C(Cn1ccc([N+](=O)[O-])n1)Nc1nccs1	-6%
O=C(CSc1nc(O)cc(=O)[nH]1)N1CCOCC1	-1%
COc1ccc(CCNC(=S)N2CCC(C(N)=O)CC2)cc1	-1%
O=C(COc1ncnc2c(Cl)cc(Cl)cc12)NCCC1=CCCCC1	17%
CCCc1nn(C)c(C(=O)Nc2cccc3ccccc23)c1Cl	-10%
COc1c(Cl)cc(C(=O)O)cc1Cl	-14%
O=C(CSc1nnc(-c2ccccc2)c(-c2ccccc2)n1)Nc1ccc(Br)cn1	10%
Cc1ccc(C)c(N2CCN(C(=O)c3cccn4c(=O)c5ccccc5nc34)CC2)c1	3%
Cc1nc(SCC(=O)Nc2ccc3c(c2)OCO3)c(C#N)c2c1CCCC2	-11%
O=C(NC(=S)N1CCCCCC1)c1cccc([N+](=O)[O-])c1	3%
Cc1c(Cl)cccc1NC(=S)/C(=C(\[O-])c1ccc(Cl)s1)[n+]1ccccc1	-3%
O=C1C=C(c2ccc3c(c2)oc2ccccc23)C[C@@H](c2ccc3c(c2)OCO3)C1	5%
Cn1c(SCC(=O)Nc2nccs2)nnc1-c1ccc(S(=O)(=O)N2CCCC2)cc1	3%
CC(C)Oc1ccc(/C=N/NC(=O)c2nnn(-c3nonc3N)c2CN(C)c2ccccc2)cc1	3%
O=C(NC(NC(=O)c1c(F)cccc1F)c1ccc([N+](=O)[O-])cc1)c1c(F)cccc1F	-28%
CCC(C)N1C(=O)N(c2cccc(Cl)c2)C(C)(O)CC1(C)C (stereo not given)	3%
N#Cc1ccc(C(=O)Nc2cccc3ccccc23)c(F)c1	-4%
CCOC1(C)OCC(=O)[C@]2(CCC3C4CCC5=CC(=O)C=CC5(C)C4C(=O)CC32C)O1 (stereo not given in full)	1%

The last 6 records of the part above come first, to join the parts:
structure	VDR inh
Cn1c(SCC(=O)Nc2nccs2)nnc1-c1ccc(S(=O)(=O)N2CCCC2)cc1	3%
CC(C)Oc1ccc(/C=N/NC(=O)c2nnn(-c3nonc3N)c2CN(C)c2ccccc2)cc1	3%
O=C(NC(NC(=O)c1c(F)cccc1F)c1ccc([N+](=O)[O-])cc1)c1c(F)cccc1F	-28%
CCC(C)N1C(=O)N(c2cccc(Cl)c2)C(C)(O)CC1(C)C (stereo not given)	3%
N#Cc1ccc(C(=O)Nc2cccc3ccccc23)c(F)c1	-4%
CCOC1(C)OCC(=O)[C@]2(CCC3C4CCC5=CC(=O)C=CC5(C)C4C(=O)CC32C)O1 (stereo not given in full)	1%
COCC(C)NC(=O)c1ccc2nc(-c3ccccc3)c(-c3ccccc3)nc2c1 (stereo not given)	-9%
O=C(NCc1ccc(F)cc1)C1CCC(CNS(=O)(=O)c2cccs2)CC1 (stereo not given)	-17%
Clc1ccc2c(c1)C1CC2CCN1Cc1ccccc1 (stereo not given)	8%
CCN(C(=O)Cc1ccccc1OC)c1nnc(-c2ccncc2)s1	1%
CC1CCC2(CC1)NC(=O)N(CC(=O)NC1(C#N)CCCCC1)C2=O (stereo not given)	-13%
CC(=O)N/N=C(\C)c1ccc2c(c1)OCCO2	0%
S=C(Nc1ccccc1Cl)N(CCCN1CCOCC1)Cc1ccco1	-18%
COC(=O)c1cccnc1NC(=S)NNC(=O)c1ccncc1	-6%
COc1ccccc1-c1nc(-c2ccc(Br)cc2)no1	-8%
Cc1cc(C)n(Cc2ccc(C(=O)NCCC3=CCCCC3)o2)n1	-4%
CCOC(=O)C1=C(C)N(C)C(=O)NC1c1cccc([N+](=O)[O-])c1 (stereo not given)	-11%
Cc1cc(SCC(=O)Nc2cccc(S(=O)(=O)NC3=NCCCCC3)c2)nc2ccccc12	-17%
Cc1ccc(Nc2c(-c3ccco3)nc3ccccn23)cc1	-8%
O=C(NC(=S)N1CCCC1)c1ccc(Cl)cc1	6%
O=C(NCc1ccc(F)cc1)c1cnc(N2CCOCC2)c2ccccc12	18%
O=C(O)c1cc(N/N=C/c2ccc(N3CCOCC3)cc2)ccc1Cl	-2%
CC(C)OC(=O)CSc1nnc2c(n1)[nH]c1ccc(F)cc12	-118%
CCOC(=O)C1CCCN(C(=O)c2ccc3nc(-c4ccc(OC)c(OC)c4)c(-c4ccc(OC)c(OC)c4)nc3c2)C1 (stereo not given)	9%
CC(NC(=O)c1ccc(Cl)s1)C1CCCO1 (stereo not given)	14%
O=C(O)c1ccc(N=NN2CCCC2)cc1	-21%

Part of the list above, reformatted:
VDR inh,Molecule
-17%,O=C(NCc1ccc(F)cc1)C1CCC(CNS(=O)(=O)c2cccs2)CC1 (stereo not given)
8%,Clc1ccc2c(c1)C1CC2CCN1Cc1ccccc1 (stereo not given)
1%,CCN(C(=O)Cc1ccccc1OC)c1nnc(-c2ccncc2)s1
-13%,CC1CCC2(CC1)NC(=O)N(CC(=O)NC1(C#N)CCCCC1)C2=O (stereo not given)
0%,CC(=O)N/N=C(\C)c1ccc2c(c1)OCCO2
-18%,S=C(Nc1ccccc1Cl)N(CCCN1CCOCC1)Cc1ccco1

(more compounds)
structure	VDR inh
COc1ccc(NC(=O)Cn2nnc3sc4c(c3c2=O)CCCC4)cc1	-15%
Cc1ccc(OCC(=O)Nc2ccc3c(c2)OCO3)cc1C	6%
O=C1COc2ccc(C(=O)COC(=O)Cc3ccc(F)cc3)cc2N1	5%
CCOc1ccc(N(C(C)C(=O)N/N=C(\C)c2cccc(NC(=O)c3ccccc3)c2)S(C)(=O)=O)cc1 (stereo not given)	3%
O=C(Cn1cc2c(n1)CCCC2)N1CCCC1	-2%
O=C(N/N=C/c1ccccn1)c1ccc(NC(=O)c2ccccc2Cl)cc1	-2%
CC(=O)Nc1ccc(C(=O)N/N=C/C2CC3C=CC2C3)cc1 (stereo not given)	-7%
O=C(Nc1sc2c(c1C(=O)O)CCCC2)c1ccc(F)cc1	12%
CCCSc1nc(N)nc2c1ncn2C1OC(CO)C(O)C1O (stereo not given)	3%
CCOC(=O)NNC(=O)c1ccc(Cl)cc1	7%
Cc1ccc(C)n1-c1cc(S(=O)(=O)N2CCOCC2)ccc1N1CCCC1	-4%
COc1cc(CN(C)c2ccc(S(=O)(=O)N3CCCC3)cn2)ccc1OC(F)F	7%
COc1ccc(C(C)C)cc1S(=O)(=O)Nc1ccccn1	6%
CCN(CC(=O)Nc1ccc(OC)cc1)C(=O)CN1C(=O)NC(C)(c2ccc3ccccc3c2)C1=O (stereo not given)	4%
O=C(Nc1ncccn1)C1c2ccccc2Oc2ccccc21	-10%
CCN(CC)S(=O)(=O)c1ccc(NC(=O)c2ccc(CN3CCOCC3)cc2)cc1	18%
Cc1occc1C(=O)Nc1cccc(S(=O)(=O)N2CCOCC2)c1	-11%
CCC1(CC)C(=O)Nc2ccccc21	1%
Cc1c(C(=O)NCCN2CCCC(O)C2)oc2c(F)cccc12 (stereo not given)	19%
CC(=O)c1cccc(NC(=S)Nc2ccn(Cc3cccc4ccccc34)n2)c1	13%

Further records
| SMILES | VDR inh |
| --- | --- |
| Cc1cc(NC(=O)Cc2ccc(Br)cc2)no1 | -3% |
| Cc1ccc(NS(=O)(=O)c2ccc(C(C)C)cc2)cc1S(=O)(=O)N1CCOCC1 | 2% |
| CC(C)C(=O)Nc1ccc(C(=O)N/N=C/C2CC3C=CC2C3)cc1 (stereo not given) | -15% |
| Cc1ccc(-n2c3c(cc(C(=O)NCCCN4CCOCC4)c2=O)C(=O)CC(C)(C)C3)cc1 | 3% |
| COc1ccc(NC(=O)CSc2nnc(-c3nnn(-c4ccc(F)cc4)c3C)o2)cc1 | 15% |
| O=C(Cc1ccc(F)cc1)Nc1cccc(-c2ccc3nncn3n2)c1 | 10% |
| CCn1ccnc1[C@@H]1C[C@H]2CN(Cc3cccc(Cl)c3)C(=O)[C@]23CCCN13 | -7% |
| Cc1ccc(-n2nnc3c(=O)n(Cc4ccccc4C)cnc32)cc1 | -8% |
| C[C@H](NC(=O)c1ccco1)C(=O)N1CCN(c2ccc(C(F)(F)F)cn2)CC1 | -7% |
| CN(CC(=O)Nc1ccc(Cl)c(S(=O)(=O)N(C)C)c1)Cc1ccccc1 | -15% |
| COc1ccc(-c2c(C)nn3c(Cl)c(C)c(C)nc23)cc1 | -6% |
| O=c1[nH]c2c(s1)C(c1cccnc1)C1C3CCC(C3)C1S2 (stereo not given) | -9% |
| CCc1ccccc1Nc1nc(N)nc(COC(=O)CCC(=O)c2ccc(F)cc2)n1 | -21% |
| O=C(CSc1ncn[nH]1)Nc1ccc(Br)cc1F | -10% |
| COc1ccc(N=C2C=CC(=O)O2)cc1 | 79µM* |
| Nc1ccc(-n2nncc2-c2ccco2)cc1 | 12% |
| COc1ccc(NC(=O)c2cc(NC(=O)C3CCCCC3C(=O)O)ccc2N2CCOCC2)cc1 (stereo not given) | 17% |
| COc1ccc(N2CCN(C(=O)Nc3ccccc3Cl)CC2)cc1 | 3%&-9% |
| CCOC(=O)N1CCN(C(=O)CSc2nc3c(cnn3-c3ccc(Cl)cc3)c(=O)[nH]2)CC1 | -18% |
| CCC(Sc1nc2sc(C(=O)OC)c(C)c2c(=O)n1N)C(=O)NCC1CCCO1 (stereo not given) | -1% |
| O=C(COC(=O)CCNS(=O)(=O)c1ccccc1F)Nc1nnc(-c2ccccc2)o1 | -14% |
| N#CCCN1CCCN(CCC#N)CCN(CCC#N)CCCN(CCC#N)CC1 | 1% |
| CNc1[nH]ncc1[N+](=O)[O-] | 10% |
| COc1ccccc1NCC(=O)NN=C1CCS(=O)(=O)c2ccc(F)cc21 | 10% |
| COc1cc2c(cc1OC)C(COc1ccc3c(C)cc(=O)oc3c1)N(C(=O)c1ccc(C)c(C)c1)CC2 (stereo not given) | -33% |
| Clc1cnc(N/N=C/c2ccncc2)c(Cl)c1 | -1% |
| CC(=O)c1ccc(N2CCN(c3ncnc4onc(-c5ccc(Cl)cc5)c34)CC2)cc1 | u |
| CCc1ccc(NC(=O)CN2C(=O)C3(SCC(=O)N3c3ccccc3)c3ccccc32)cc1 (stereo not given) | 10% |
| CCOC(=O)c1csc(NC(=O)c2ccc(S(=O)(=O)N3CCCC3)cc2)n1 | 5% |
| CCOC(=O)c1csc(NC(=O)C(C)(C)C)n1 | 6% |
| COc1ccc(C(=O)NCC(=O)OCC(=O)NC(=O)c2ccc(C(C)(C)C)cc2)cc1OC | -10% |
| Cc1c(C(=O)c2ccccc2)oc2ccc3ccccc3c12 | -16% |
| CC(NC(=O)CCSc1nc(-c2ccco2)cc(C(F)(F)F)n1)c1ccccc1 (stereo not given) | 5% |
| COc1ccc(-c2nc(CN3CCN(c4ccccc4OC)CC3)c(C)o2)cc1 | 3% |
| O=C(Oc1ccc(-c2cnc3ccccc3n2)cc1)c1cc([N+](=O)[O-])ccc1Cl | -2% |
| COc1ccc(S(=O)(=O)NCC(c2ccco2)N2CCN(c3ccc(F)cc3)CC2)cc1 (stereo not given) | 3% |
| COc1ccccc1/C=N/NC(=O)NC12CC3CC(CC(C3)C1)C2 | 7% |
| O=C(CSc1nnnn1-c1ccccc1)Nc1nsc(-c2ccccc2)n1 | 3% |
| CCn1c(=S)sc2c(=O)n(CC(=O)Nc3ccccc3OC)c(C)nc21 | 8% |
| O=c1[nH]cc(-c2ccccc2)c(=O)[nH]1 | -8% |
| Cc1noc(C)c1-c1ccc2ncnc(N(C)C)c2c1 | 3% |
| O=C(O)c1nc(=O)[nH]c(=O)[nH]1 | 7% |
| Cc1nn(C(=O)Cn2ccc([N+](=O)[O-])n2)c(C)c1Br | -1% |
| O=S(=O)(/C=C/c1ccccc1)N1CCN(c2ccccc2)CC1 | -10% |

A portion of the library; rates above refer to the full screens.
